NPYLR7 ag: mosquito NPYLR7 agonism. HEK293T NPYLR7/Galpha15, GCaMP6s calcium fluorescence. hit rate 0.15% among 270,000. activation, % at 10 µM; in the data active = activation above about 40%;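 note: 0% = vehicle and 100% = reference agonist at the receptor; some compounds past the cut are filed as inactive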
NPYLR7 ag max-min: also measured in NPYLR7 ag; calls as there; activation, %; measured here: Max-Min RFU normalised activation; some inactives read as strong as hits;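 span of the calcium signal over five minutes; 0% = vehicle and 100% = native peptide agonist; compound fluorescence can raise it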
An asterisk follows results filed as active; & = joins results of further samples.

Below each SMILES: NPYLR7 ag | NPYLR7 ag max-min
CCOC(=O)C1CCN(c2ncnc3c2nnn3C)CC1
  12 | 4
CCN(CC)CCCNC(=O)c1sc2ccccc2c1Cl
  -2 | 0
CCn1c(SCC(=O)NCc2ccc(C)cc2)nnc1-c1ccco1
  -1 | -4
COc1cccc(CSc2nnc(C(C)NC(=O)c3cc(Cl)cc(Cl)c3)n2-c2ccc(C)cc2)c1 (stereo not drawn)
  16 | 16
BrC(C=NN1CCN(Cc2ccccc2)CC1)=Cc1ccccc1
  4 | 5
CC1(Cc2ccc(F)cc2)C(=O)Nc2c(Cl)cccc21 (stereo not drawn)
  2 | 5
CN(C(=O)CCN1CCCCCC1=O)C1CCCN(CCc2ccccc2)C1 (stereo not drawn)
  15 | 9
COC(=O)NC1(C(F)(F)F)C(=O)Nc2c1c(=O)n(C)c(=O)n2C (stereo not drawn)
  -7 | -12
CCOC(=O)N1CCN(c2cc(Oc3ccc(F)cc3C)ncn2)CC1
  -10 | -3
Cc1nnc(SCC(=O)NC(c2ccccc2)c2ccccc2)n1C
  -5 | 15
O=c1[nH]c(N2CCC(CN3CCOCC3)C2)nc2ccccc12 (stereo not drawn)
  -1 | 0
CCOc1ccc(-c2noc(CNc3cc(F)cc(F)c3)n2)cc1
  16 | 8
O=C1COc2ccc(-c3cccc(-c4cccc(NC(=O)c5ccccc5C(F)(F)F)c4)n3)cc2N1
  4 | 4
COc1ccc(N2CC(NC(N)=O)CC2=O)cc1 (stereo not drawn)
  9 | 5
CCN(CC)c1nc2c3c(n(-c4ccc(OC)cc4)c(=S)c(C#N)c3c1C#N)N=C(C)N2
  0 | -3
COc1ccc(CC2CN(C(=O)c3c(C)cc(C)[nH]c3=O)CCO2)cc1 (stereo not drawn)
  18 | 12
COc1cc(F)c(CN(Cc2cccnc2)C2CCN(C)CC2)cc1OC
  2 | 3
Cc1nn(-c2ccccc2)c(C)c1C=C(C#N)C#N
  2 | 2
Cc1csc(=NC(=O)c2ccccc2)n1Cc1ccccc1
  -1 | -1
COCCNc1nccnc1-c1ccccc1
  -3 | -8
CC(C)c1cc(=O)n2c([nH]c3ccccc32)c1C#N
  7 | 5
O=C(C1CC1)N1CCc2ccc(NC(=O)C3(c4ccccc4)CCOCC3)cc21
  -2 | 0
C=CCNC1CCN(c2ccc(CC(=O)N3CCC[C@H]3C(=O)OC)cc2)CC1
  19 | 10
CSc1nc(=S)n(Cc2ccccc2)c(C)c1C(C)=O
  -13 | -14
Cc1cccc(CNc2c(Cc3ccccc3)c(C)nc3ncnn23)c1
  -4 | -15
COc1nc(-c2ccc(C(F)(F)F)cc2)n(-c2ccc(NC(=O)C3C[C@H]3c3ccccc3)cc2)n1 (stereo partly drawn)
  -2 | -3
CNC(=O)Cc1noc(Cc2cccc(Br)c2)n1
  5&6 | 2&-7
CCC(C)(C)c1ccc(OCCCCNC(=O)c2cc(-c3cccc(OC)c3)nn2C)c(C(C)(C)CC)c1
  -4 | 1
CCOC(=O)C1CCCN(C(=O)c2ccc(CSc3nc(N(C)Cc4ccccc4)cc(C(C)(C)C)n3)o2)C1 (stereo not drawn)
  10 | 10
CCN(CCO)c1ccc(Nc2cc(C(=O)NCc3ccccc3)ncn2)cc1
  -3 | -8
O=[N+]([O-])c1ccc2c(c1)S(=O)(=O)C=C2
  8 | -2
O=C(CN1C(=O)NC2(CCCC2)C1=O)N1CCN(c2ncccn2)CC1
  11 | 8
CCCCc1ccc(N2CCn3c2nc2c3c(=O)n(CCOC)c(=O)n2C)cc1
  -8 | -10
CC(c1cccs1)N(C)S(=O)(=O)c1ccc2c(c1)OCCO2 (stereo not drawn)
  5 | 2
O=C1CC(c2ccc(O)cc2)Oc2ccccc21 (stereo not drawn)
  7 | 6
COc1ccc(S(=O)(=O)N2CCC(C)CC2)cc1-c1nnc2c3ccccc3c(C)nn12
  -23 | -29
O=C(CN(CCCN1CCOCC1)C(=O)C12CC3CC(CC(C3)C1)C2)N(Cc1ccc(F)cc1)Cc1ccco1
  -3 | 6
CC1Cc2ccccc2N1C(=O)CN1CCC(c2c[nH]c3ccccc23)CC1 (stereo not drawn)
  6 | 4
COc1ccc(C2NC(=O)N(C)C(C)=C2C(=O)OC2CCCCCC2)cc1 (stereo not drawn)
  -2 | -9
Cc1ccccc1CO[C@]1(C(=O)NN2CCOCC2)CC(OCc2ccc(F)cc2)[C@@H]2OC(C)(C)O[C@@H]2C1 (stereo partly drawn)
  15 | 22
CCN(CC)S(=O)(=O)c1cccc(-c2nnc(SCc3cccc4ccccc34)o2)c1
  0 | -1
CCCCN(CC(=O)N(CCc1ccccc1)Cc1ccc(C)o1)C(=O)Nc1cccc(F)c1
  9 | 6
N#CCc1c(C#N)c(N)nc(N2CCCCCC2)c1C#N
  4 | 4
CCCCn1c(=O)c2c(nc3oc(-c4ccccc4)cn32)n(C)c1=O
  -2 | 5
Cc1ccc(S(=O)(=O)n2cc(/C=C/C(=O)NCCCOc3cccc([N+](=O)[O-])c3)c3ccccc32)cc1
  -7 | -11
CCOC(=O)c1cc(-c2cccc(NC(=O)c3cc(C)oc3C)c2)n(-c2ccc(OC)cc2)n1
  20 | 16
COCCCN(CC(=O)N(Cc1ccc2c(c1)OCO2)Cc1cccs1)C(=O)Nc1ccc(SC)cc1
  15 | 16
COc1ccccc1C(=O)N1CCN(c2cc(-n3ccnc3C)ncn2)CC1
  -15 | -18
Cc1noc(C)c1C1CCCN1Cc1cccc(C(=O)Nc2cn(C)nn2)c1 (stereo not drawn)
  -6 | -7
CS(=O)(=O)N1CCC(Nc2nc3ccccc3s2)CC1
  1 | 0
O=C(CCCCCn1c(=S)[nH]c2cc3c(cc2c1=O)OCO3)N1CCN(C2CCCCC2)CC1
  -4 | -7
CCc1nc2ccc(C(=O)NCc3cccs3)cn2c1N(CC)CCOC
  -6 | -9
CC(O)c1ccc2ccccc2c1 (stereo not drawn)
  6 | 2
CCCCCC=CCC1CC(=O)N(CCCn2cccn2)C1=O (stereo not drawn)
  -9 | -13
CCn1c2ccccc2c2cc(CN(Cc3ccco3)C(=O)Cc3ccccc3)ccc21
  -8 | -10
CCc1nc2ccc(C(=O)NCCc3ccccn3)cn2c1N(CCN(C)C)CC1CC1
  4 | -5
S=C(NCCN1CCOCC1)NNc1c(Cl)cc(Cl)cc1Cl
  0 | 0
CCc1c(C)cc(C(=O)N2Cc3cnc(CC(C)C)nc3C2)c(=O)n1C
  1 | -3
CN(CCOc1ccc(Br)cc1)Cc1cscn1
  9 | 7
CCCCN(C)C(=O)C(=O)Nc1cccc(-c2n[nH]c(C3CC3)n2)c1
  2 | 1

(more compounds)
Below each SMILES: NPYLR7 ag | NPYLR7 ag max-min
O=C(O)CN1C(=O)/C(=C\c2cc(Br)c(Oc3ccc(C(F)(F)F)cc3[N+](=O)[O-])c(Br)c2)SC1=S
  4 | 9
C=CCN1C(=O)/C(=C\c2ccc(N(C)C)cc2)SC1=S
  7 | 1
Cc1sc2nc(CN3CCCCC3)nc(N)c2c1C
  5&-1 | 2&5
CCC1CCCCC1NS(=O)(=O)c1ccc(Cl)nc1 (stereo not drawn)
  5 | 1
O=C(NCCCC(=O)N1CCOC(COCc2ccc(F)cc2Cl)C1)OCc1ccccc1 (stereo not drawn)
  22 | 21
Cc1cnc(C(=O)NC2CCCc3nc(-c4ccccc4)ncc32)cn1 (stereo not drawn)
  20 | 7
Cc1cc(C(C)(C)C)cc(C)c1S(=O)(=O)NC(C)CC#N (stereo not drawn)
  2 | 0
CC(C)NC(=O)N1CCN(C(C(=O)NCc2cccc(F)c2)C2CCCC2)CC1 (stereo not drawn)
  -5 | 1
CC1CN(CC(=O)NCc2cc(F)ccc2F)Cc2cc(Cl)ccc2O1 (stereo not drawn)
  16 | 3
Cc1ccc(NC(=O)C(=O)NCC2CCN(C)CC2)cc1C
  -5 | -4
Cc1cc(C(=O)N(Cc2ccccn2)c2nc3c(C)c(Cl)ccc3s2)on1
  16 | 15
CCOC(=O)C1CCN(C(=O)c2cc(-c3ccccc3F)nc3cc(C(C)(C)C)nn23)CC1
  -11&4 | -6&20
FC(F)(F)c1ccccc1N1CCN(c2c3c(nc4ncnn24)CCCC3)CC1
  30 | 18
Nc1nc(SCc2ccccc2)ns1
  12 | 7
N#Cc1ccc(/C=C/c2ccc(-c3ccc(F)cc3)o2)nc1
  6 | 3
CC1(C)CCCC(C)(C)C(=N/N)/C1=N\N
  -4 | -5
NS(=O)(=O)CCCC(=O)N1CCOC(c2ccc(F)cc2)C1 (stereo not drawn)
  2 | -16
N#Cc1c(N)n(CCNC(=S)Nc2ccccc2)c2nc3ccccc3nc12
  1 | 37
Cc1nc(/C(C#N)=C/c2ccco2)sc1C(=O)Nc1ccccc1
  6 | 3
CCC(CC)C(=O)Nc1ccc(Nc2cc(OC)nc(C)n2)cc1
  6 | -3
CCNC(=O)N[C@@H]1C=C[C@@H](c2c(C)nn(CCC#N)c2C)C1
  -8 | -14
CC(C(=O)N1CCCC1)n1cc([N+](=O)[O-])cn1 (stereo not drawn)
  -3 | -7
CC(C)C(=O)N1CCCC1(C)C(=O)Nc1ccc(F)cc1 (stereo not drawn)
  8 | 5
CCN1CCN(c2nc3c(c(=O)n(C)c(=O)n3C)n2CCSc2nc(C)cc(C)n2)CC1
  6 | 2
Cc1ccc(N2CCN(Cc3nc(-c4ccccn4)no3)C(C)C2)cc1 (stereo not drawn)
  2 | 0
COc1ccc(CN2CCC(C(=O)NC(c3ccc(Cl)cc3)c3ncccc3C)CC2)cc1 (stereo not drawn)
  6 | -5
COC(=O)C1=C(C(=O)OC)C(C(=O)OC)N2C=Cc3ccccc3C2=C1C(=O)OC (stereo not drawn)
  1 | -1
CCOC(=O)c1ccc(NN2C(=O)CCC2=O)c([N+](=O)[O-])c1
  7 | 12
NCC1(Cc2ccccc2)CCC1
  -3 | -5
O=C(Nc1ccc(Nc2cc(-n3cccn3)ncn2)cc1)c1cccc(F)c1
  -3 | -12

4 of the compounds above, as labelled records:
> Nc1nc(SCc2ccccc2)ns1
  NPYLR7 ag: 12	NPYLR7 ag max-min: 7

> N#Cc1ccc(/C=C/c2ccc(-c3ccc(F)cc3)o2)nc1
  NPYLR7 ag: 6	NPYLR7 ag max-min: 3

> CC1(C)CCCC(C)(C)C(=N/N)/C1=N\N
  NPYLR7 ag: -4	NPYLR7 ag max-min: -5

> NS(=O)(=O)CCCC(=O)N1CCOC(c2ccc(F)cc2)C1 (stereo not drawn)
  NPYLR7 ag: 2	NPYLR7 ag max-min: -16

Additional entries
Below each SMILES: NPYLR7 ag | NPYLR7 ag max-min
O=c1c(N=Nc2ccccc2[N+](=O)[O-])c(-c2ccccc2)[nH]n1-c1ccc([N+](=O)[O-])cc1
  -1 | -5
COc1nn(C)cc1C(=O)Nc1ccc(C(C)=O)cc1
  2 | 1
O=C(C1=C(O)C(=O)N(CCN2CCOCC2)C1c1ccccc1F)c1ccco1 (stereo not drawn)
  7 | 8
COc1cc(-c2nnc(SCc3nc4ccccc4o3)o2)cc(OC)c1OC
  11 | 7
COc1cc(C=C(C#N)C(=O)OC(C)C)cc(Cl)c1OC
  0 | -1
CCc1cn[nH]c1C1CCN(C(=O)c2cc(C(C)=O)c(C)[nH]c2=O)CC1
  12 | -1
C(=Nn1c(-c2ccccc2)csc1=NCc1ccccc1)c1cccnc1
  -6 | -11
CC(=O)c1cc(C(=O)N2CCOC(Cc3ccccc3Cl)C2)c(=O)[nH]c1C (stereo not drawn)
  -1 | -7
CN(Cc1cnn(C)c1)S(=O)(=O)N1CCSCC1
  0 | 0
OCC1(Cc2ccccc2F)CCCN(Cc2nc(-c3ccccc3)cs2)C1 (stereo not drawn)
  22 | 9
COc1cc(/C=C2\NC(=S)NC2=O)ccc1Oc1ccc([N+](=O)[O-])cc1[N+](=O)[O-]
  11 | 15
O=C(NCCOc1ccc(C(F)(F)F)cc1)C1CSc2ccccc2O1 (stereo not drawn)
  11 | 11
CCOc1ccc(C2=NOC(C)C(=O)N2Cc2cccc(C#N)c2)cc1 (stereo not drawn)
  -1 | -3
Cc1ccc(-n2ncc3c(NCCO)nc(N4CCN(C(=O)c5ccco5)CC4)nc32)cc1
  0 | -1
CNC(=O)C1CCC(Cn2c(=O)c3sccc3n(Cc3ccccc3)c2=O)CC1 (stereo not drawn)
  1 | -7
CN(C)CCNc1cc(-c2ccsc2)c2cc[nH]c2n1
  2 | 0
O=C(CCN1CCCCO1)NCCc1nc(-c2cccnc2)n[nH]1
  13 | 4
CN(C)CCN(Cc1c(-c2ccccc2)noc1N1CCc2ccccc2C1)C(=S)Nc1ccc(F)cc1
  -4 | 5
COc1ccc(C(C)(C)C)cc1NC(C)C(=O)NC(N)=O (stereo not drawn)
  6 | 0
O=C1CCCN1c1ccc(S(=O)(=O)NCc2ccc(-c3ccc(Br)cc3)o2)cc1
  35 | 19
CC1c2cccn2CCN1C/C=C/c1ccco1 (stereo not drawn)
  20 | 12
CC(Oc1ccc(Cl)cc1)C(=O)NNC(=O)C1COc2ccccc2O1 (stereo not drawn)
  14 | 10
Cc1nc2c(c(N3CC(C)OC(C)C3)n1)CN(C(=O)Nc1cc(C(F)(F)F)cc(C(F)(F)F)c1)CC2 (stereo not drawn)
  -9 | -14
CSc1ccccc1C(=O)NC1CCCN(CCCc2ccccc2)C1 (stereo not drawn)
  5 | 7
CCNC(=O)C1(C)CCN1C(=O)Cc1ccc(C(C)(C)C)cc1 (stereo not drawn)
  9 | 3
COCCOCC(=O)N1CCC(n2c(=O)oc3ccc(C(=O)OC)cc32)CC1
  1 | -3

Looked up one by one from the list above:
Below each SMILES: NPYLR7 ag | NPYLR7 ag max-min
CN(Cc1cnn(C)c1)S(=O)(=O)N1CCSCC1
  0 | 0
CCNC(=O)C1(C)CCN1C(=O)Cc1ccc(C(C)(C)C)cc1 (stereo not drawn)
  9 | 3
CN(C)CCN(Cc1c(-c2ccccc2)noc1N1CCc2ccccc2C1)C(=S)Nc1ccc(F)cc1
  -4 | 5

An excerpt; rates above refer to the full screens.
